Compound activity from PubChem BioAssay.
Sa ugtP lethal = compounds lethal to S. aureus RN4220 ugtP deletion mutant. OD600 growth, 16 h; some inactives read as strong as hits. actives 0.54% (n = 330,000). growth inhibition, % (concentration not given with the values);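 active = z-score under -3 and OD600 up to 0.15 on both plates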;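 note: plate controls were untreated wells for no effect and antibiotic for full effect; wells of about 80 µL received 100 nL stock; the first replicate is given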
Mtb hypoxia rep = inhibitors of hypoxia-regulated fluorescent reporter in Mycobacterium tuberculosis. M. tuberculosis hypoxia-regulated fluorescent reporter, fluorescence. fluorescence inhibition, % (no concentration beside the values). actives 0.1% (n = 300,000). AID 1159583;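 active = 35 to 45% if threefold the growth effect, above 45% if 1.5-fold the growth effect; inactive = the rest, general growth blockers included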;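 note: wells of about 50 µL received 100 nL stock; 0% = vehicle wells and 100% = reference inhibitor wells; whole bacteria with a GFP reporter of the hypoxia response; strong numbers were not always called active; many hits fall short of the cut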
BJeLR lethal = kills HRASV12-expressing BJeLR cells | BJeLR (HRASV12) viability, CellTiter-Glo ATP luminescence, 48 h; reference of the scale not given here | inhibition, % (no concentration beside the values) | actives 0.17% (n = 300,000);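 active = replicate mean above 50%; inconclusive = above 50% but judged a plate artefact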;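 note: 50 nL library stock added to about 25 µL; numbers are from one replicate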
Autofluor counter = flagged as autofluorescent in microsphere protease counterscreen | compound autofluorescence counterscreen, microsphere flow cytometry; stronger effect = higher value | actives 3.1% (n = 360,000) | fluorescence intensity (concentration not given with the values) | AID 624483;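 active = at least 3 SD above the mean of all compounds, about 16000 in these data; inconclusive = too few beads counted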;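 note: 100 nL of 1 mM stock went into each well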
PrP UTR inh = suppresses PrP 5' UTR mRNA reporter expression; cell-based PrP 5' UTR mRNA reporter, plate reader; actives 0.35% (n = 340,000); AID 488862; inhibition, % (test concentration not listed);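 active = every replicate at 50% or more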;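 note: 0 = median of the neutral control wells; tested in H4 reporter cells; numbers are from one replicate; inactives centre near -14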
RN4220 kill = kills Staphylococcus aureus RN4220. AID 1259311. actives 0.33% (n = 330,000). inhibition, % (concentration not given with the values). S. aureus RN4220 growth, OD600, 16 h;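 active = z-score of -3 or lower and OD600 up to 0.18 on both plates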;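 note: plate controls were untreated cells for no effect and reference antibiotic for full effect; stock transfer was 100 nL into about 80 µL; one replicate is shown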
Mtb hypoxia rep growth = recorded beside Mtb hypoxia rep, whose call it bears; growth inhibition, %; measured here: M. tuberculosis growth (absorbance);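 0% = vehicle and 100% = reference antibiotic; read after six days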
* = called active by the depositor; ? = inconclusive; . = not tested or not shown. Random draw from the library; any-hit rate near 4%.

Fields – Sa ugtP lethal, Mtb hypoxia rep, Mtb hypoxia rep growth, BJeLR lethal, Autofluor counter, PrP UTR inh, RN4220 kill
C/C(=N\NC(=O)c1ccc(NS(=O)(=O)c2cccs2)cc1)c1ccccc1
→ ., ., ., 4, 2464, 8, .
C/C=C/c1ccc(OCC(O)CN(C)Cc2ccc(SC)cc2)c(OC)c1 (stereo not given)
→ -6, 14, 0, 3, 3679, 3, -2.3
COc1ccc(NC2CCCN(C(=O)CSc3ccccn3)C2)cc1OC (stereo not given)
→ -2, -16, 3, 5, 6339, 8, 1.3
NC(=O)C(C(=O)/C=C/c1ccc(Cl)cc1)=C1SCCS1
→ 8, 3, 6, 3, 4299, -11, 6.0
COc1cc(OC)cc(-n2nnnc2SCC(=O)N2CCCc3ccccc32)c1
→ 3, 3, 1, -1, 9684, -4, 2.1
CC(C)(C)c1ccc(C2(C)NC(=O)N(CC(=O)NC3CCS(=O)(=O)C3)C2=O)cc1 (stereo not given)
→ 4, 3, 7, ., ?, 22, 1.0
O=C(c1ccc(Br)cc1)N1CCC2(CC1)NCCc1[nH]cnc12
→ 1, 5, 12, -1, 5844, -8, 3.1
O=S(=O)(NCc1cccnc1)c1ccc(Cl)cc1
→ 6, 6, 12, 1, 3419, -23, 6.2
Cn1c(=O)n(C)c2cc(/C=N/NC(=O)c3cccc(Br)c3)ccc21
→ ., ., ., -15, 3960, -22, .
COC(=O)c1ccccc1NC(=O)CSc1n[nH]c(C)n1
→ -3, 3, 4, 4, ., 8, -0.3
CC(=O)c1cc(CN2C(=O)CCC2=O)cs1
→ 2, -4, 6, 2, 8175, -10, 2.9
O=C(Cc1cccs1)NCc1cn2ccccc2n1
→ -2, 1, -2, -5, 5391, -12, 3.9
CN(C)CCN(C(=O)c1ccc(S(=O)(=O)N(C)CC2CCCO2)cc1)c1nc2cc3c(cc2s1)OCO3 (stereo not given)
→ 0, 1, 9, 0, 5506, -12, -1.4
O=C(CNC(=O)OCc1ccccc1)Oc1cc2oc(=O)cc(-c3ccccc3)c2cc1Cl
→ 8, 4, 2, ., 6013, -13, -4.1
O=C(Nc1cccc(O)c1)c1cc(S(=O)(=O)N2CCCC2)ccc1Cl
→ 8, ., ., 12, 4163, -4, -1.1
COC(=O)C1=C(C)OC(N)=C(C#N)C1c1ccsc1 (stereo not given)
→ -3, 3, -3, -10, 3582, -4, -2.9
COc1ccc(/C=C2\SC(N3CCc4ccccc4C3)=NC2=O)cc1
→ -21, -2, -15, 1, 2624, -21, -5.4
O=C(C1CC1)N1CCN=C1SCc1ccccc1
→ 7, ., ., 4, 6081, -21, -0.8
COc1cc(CNC(=O)CCCC(=O)c2ccccc2)cc(OC)c1OC
→ -4, 15, 4, -4, 3906, -12, -5.3
COC(=O)CC1C(=O)NCCN1C(=O)OC(C)(C)C (stereo not given)
→ 7, -2, 9, 11, 2547, -10, -0.1
N#C/C(=C/c1ccccc1)C(=O)NCc1ccccc1
→ -3, 6, 8, 8, 3649, -18, 0.0
c1ccc(-c2cc(-c3nn4c(-c5ccco5)nnc4s3)c3ccccc3n2)cc1
→ -31, -3, -17, -10, 7747, 4, -0.4
COc1ccc(C(CNC(=O)COc2ccc(-c3ccccc3)cc2)N2CCOCC2)cc1 (stereo not given)
→ 10, 7, 13, 3, 4691, -10, 9.7
CSc1cccc(NC(=O)CN(c2ccccc2)S(=O)(=O)N(C)C)c1
→ -1, 6, 9, -7, 8198, ., 1.2
CSc1nnc(OC(=O)N(C)C)n1-c1ccc(Cl)cc1
→ 16, 3, 11, -7, 5834, -17, 5.6
CN(C)c1ccnc2sc(C(=O)NCc3ccccc3)c(N)c12
→ 13, 6, 7, -8, 11212, -28, 5.1
COc1cc(C(=O)NCCOc2ccc(C)c(C)c2)cc(OC)c1OC
→ 2, 18, 16, -2, 3386, -13, 1.6
O=C(CSc1nnc(SCc2ccc(Cl)cc2)s1)N/N=C/c1ccc(C(=O)O)cc1
→ ., ., ., -6, 3922, -2, .
O=C(NC1CCCc2ccccc21)C1CCN(S(=O)(=O)c2cccc(C(F)(F)F)c2)CC1 (stereo not given)
→ -5, 6, 0, -6, 2503, -34, -5.3
COc1cc([N+](=O)[O-])ccc1-c1ccc(C=NNC(=O)c2ccccc2O)o1
→ 4, 10, 5, ., ., ., 1.9
O=C1NC(=O)N(c2ccc(Cl)cc2)C(=O)/C1=C/c1ccc2c(c1)CCN2Cc1ccccc1Cl
→ 8, -6, -13, ., 3846, -12, 4.3
COc1ccc(C2N(c3ccc(Cl)cc3)C(=O)C3CCCN32)cc1 (stereo not given)
→ 0, ., ., -12, 5679, -1, 1.4
CCOCCn1c(C(C)C)nc2ccccc21
→ 3, 3, 4, -20, 3858, -22, 5.0
COc1ccccc1NC(=S)NC(C)C(c1cccs1)N1CCOCC1 (stereo not given)
→ 3, 7, -8, 12, 3539, -13, 5.1
O=C(Nc1ccccc1)Nc1nnc(COc2ccccc2F)s1
→ -24, 1, 0, -1, 4574, -11, -9.8
NC(=O)c1ccsc1NC(=O)CS(=O)(=O)c1ccc(Cl)cc1
→ 4, -4, 0, 2, 5038, -4, 2.5
CN(C)S(=O)(=O)c1ccc(N2CCCC2)c(C(=O)NCC2CCCCC2)c1
→ 7, 11, 9, -4, 3440, -14, 2.3
CC1=CC2=NC(=O)/C(=C\c3cn(C)c4ccccc34)C(=N)N2O1
→ -10, 9, 0, -5, 2616, -27, 7.6
CCn1c2ccccc2c2cc(NC(=O)CSc3nnnn3-c3ccccc3)ccc21
→ -5, 17, 1, -5, 2491, -16, -5.9
Cc1ccc(NC(=O)CSCc2n[nH]c(=O)[nH]2)c(Br)c1
→ 4, 7, 9, 0, 4218, -35, 7.2
Cc1ccn2cc(-c3cccc(S(=O)(=O)N4CCCC4)c3)nc2c1
→ 3, 9, 4, 6, 5559, -23, 2.7
Cc1ccc(C)c(OCCC(=O)OCC(=O)Nc2cc(S(=O)(=O)N3CCOCC3)ccc2C)c1
→ -1, -12, -4, 5, 5204, -28, -0.1
Cn1c(N)c(S(=O)(=O)N2CCN(Cc3ccccc3)CC2)c(=O)n(C)c1=O
→ 4, -1, 7, -10, 2092, -9, 2.8
CCOc1ccc(-n2c(Cc3ccccc3)nnc2SCc2c(C)noc2C)cc1
→ 2, ., ., 3, 4811, -8, 6.8
C=CCn1c(C(C)NC(=O)C(C)(C)C)nc2ccccc21 (stereo not given)
→ -4, -3, 4, -3, 5104, 7, 1.0
COc1cc(CC(=O)N2CCN(C(=O)C3CCCO3)CC2)cc(OC)c1OC (stereo not given)
→ 3, 5, 10, ., 3336, -28, 5.4
Cn1c(=O)[nH]c(=O)c2c1nc(N1CCCCCC1)n2CCN1CCCCCC1
→ 5, 1, 3, 1, 8277, -9, 1.9
Cc1c(C(=O)Oc2cccc3ccccc23)cnn1-c1ccccc1
→ 16, 3, 8, 3, 2919, -3, 11
NC(=N\N=CCc1ccccc1)/C(N)=N/N=CCc1ccccc1
→ -6, 14, 12, ., 3761, -36, 2.0
CCc1ccc2oc(=O)cc(CN3CCN(c4ccc(F)cc4)CC3)c2c1
→ 5, ., ., 8, 4743, -17, -0.7

Next section.
Fields – Sa ugtP lethal, Mtb hypoxia rep, Mtb hypoxia rep growth, BJeLR lethal, Autofluor counter, PrP UTR inh, RN4220 kill
Cc1ccc(S(=O)(=O)N2CCC[C@H]2C(=O)Oc2ccccc2)cc1
→ 8, 9, 2, ., 4077, -3, 3.4
CSc1cccc(-c2nnc(NC(=O)c3cccc(N4C(=O)CCC4=O)c3)o2)c1
→ 3, 1, -5, -2, 8184, -11, 15
CC1CCC[C@]2(CC(=O)c3cc(F)ccc3O2)C1 (stereo not given in full)
→ 4, 3, 9, ., ., ., 2.2
CC(C)(C)OC(=O)N/N=C\C=C\c1ccc2c(c1)OCO2
→ ., ., ., -11, 2199, -48, .
Cc1cccc(/C=C(\C(=O)O)c2ccc(S(=O)(=O)N3CCCC3)s2)c1
→ -8, 9, 12, ., 2847, -24, 14
CCOc1ccccc1CNS(=O)(=O)c1ccc2[nH]c(=O)sc2c1
→ 46, ., ., 0, 5284, -1, 4.1
CSc1ccccc1NC(=O)CSc1n[nH]c(C)c1[N+](=O)[O-]
→ 7, 2, -6, -8, 6224, -10, 8.3
O=C(CCc1nc2ccccc2c(=O)[nH]1)Nc1ccccc1N1CCCC1
→ 1, 5, 0, 3, 5800, 11, 0.0
O=C1OC(C(=O)NCc2ccccc2)Cc2ccccc21 (stereo not given)
→ 11, 9, 10, ., 4288, 2, 8.3
O=C(CNC(=O)c1ccccc1Cl)c1ccccc1
→ 7, 1, 3, 3, 3473, -34, 7.9
CCc1ccc(NC(=O)c2cnc(N3CCN(c4ccccn4)CC3)c3ccccc23)cc1
→ 18, 2, 3, 5, 4458, -11, 34
Cc1ccccc1-n1c(SCc2csc(Nc3ccccc3)n2)nnc1-c1cccnc1
→ -24, 5, 6, 19, 8278, -17, -3.7
Fc1cccc(CNC2CCN(CCc3ccccc3)CC2)c1
→ 6, 7, 4, 0, 4377, -39, 2.5
O=C(COc1ccc2oc(-c3ccccc3)cc(=O)c2c1)NCc1ccco1
→ -7, ., ., -1, 2762, -22, -10
CCC(C)NC(=O)CC1Oc2ccc(C)cc2NC1=O (stereo not given)
→ -4, ., ., -6, 7090, -26, 1.4
COc1ccc(N2Cc3ccccc3/C2=N\C(=O)Nc2ccccc2)cc1
→ ., ., ., -5, 4068, -9, .
CCC(CC)c1nnc(NC(=O)C23CC4CC(CC(NC(C)=O)(C4)C2)C3)s1
→ 5, 3, 4, -3, 5311, -15, 0.7
O=C(Oc1ccccc1Cl)c1ccc2c(=O)n3c(nc2c1)CCC3
→ -2, 10, 0, -14, 6142, 0, 2.4
CCc1ccc(NC(=O)C2CCCN2C(=O)NC2CCCCC2)cc1 (stereo not given)
→ 4, 2, 0, 0, 4206, -12, 6.4
S=c1[nH]nc(C2CCCCC2)n1/N=C/c1cccc(Br)c1
→ ., ., ., -1, 3641, -4, .
CN1CCN(C(=S)NC(=O)c2ccc(S(=O)(=O)N3CCOCC3)cc2)CC1
→ 7, -7, 14, 8, 4844, -14, 4.4
CC1CC(c2ccccc2)NS(=O)(=O)O1 (stereo not given)
→ ., ., ., -6, 3137, -16, .
O=C1/C(=C/c2ccccc2[N+](=O)[O-])COc2ccccc21
→ 7, 20, 18, 30, 4242, 27, 12
Cc1ccc(SCCC(=O)Nc2ccc(OCc3ccccc3)cc2)cc1
→ ., ., ., -3, 2149, -11, .
O=C(NCc1ccncc1)Nc1ccccc1
→ 6, ., ., 1, 3758, -8, 2.7
Cc1ccc2nc(/C(C#N)=C\c3cc(O)ccc3[N+](=O)[O-])[nH]c2c1
→ -8, 1, 5, 8, 3488, -15, 4.8

Some of the entries so far, as tab-separated lines.
smiles	Sa ugtP lethal	Mtb hypoxia rep	Mtb hypoxia rep growth	BJeLR lethal	Autofluor counter	PrP UTR inh	RN4220 kill
CC1CC(c2ccccc2)NS(=O)(=O)O1 (stereo not given)	.	.	.	-6	3137	-16	.
O=C1/C(=C/c2ccccc2[N+](=O)[O-])COc2ccccc21	7	20	18	30	4242	27	12
Cc1ccc(SCCC(=O)Nc2ccc(OCc3ccccc3)cc2)cc1	.	.	.	-3	2149	-11	.
O=C(NCc1ccncc1)Nc1ccccc1	6	.	.	1	3758	-8	2.7
